# RecA splice inh: blocks M. tuberculosis RecA intein splicing. 290,000 compounds, 0.75% hits. cell-free RecA intein splicing, fluorescence. inhibition, %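 (about 9 µM by stock and volumes)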; in the data active means inhibition above about 30%; inconclusive means no clear call, values can overlap the other calls;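 further: 0% = vehicle wells and 100% = reference inhibitor control wells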
# Target sequence (P9WHJ3 whole entry, looked up, canonical isoform): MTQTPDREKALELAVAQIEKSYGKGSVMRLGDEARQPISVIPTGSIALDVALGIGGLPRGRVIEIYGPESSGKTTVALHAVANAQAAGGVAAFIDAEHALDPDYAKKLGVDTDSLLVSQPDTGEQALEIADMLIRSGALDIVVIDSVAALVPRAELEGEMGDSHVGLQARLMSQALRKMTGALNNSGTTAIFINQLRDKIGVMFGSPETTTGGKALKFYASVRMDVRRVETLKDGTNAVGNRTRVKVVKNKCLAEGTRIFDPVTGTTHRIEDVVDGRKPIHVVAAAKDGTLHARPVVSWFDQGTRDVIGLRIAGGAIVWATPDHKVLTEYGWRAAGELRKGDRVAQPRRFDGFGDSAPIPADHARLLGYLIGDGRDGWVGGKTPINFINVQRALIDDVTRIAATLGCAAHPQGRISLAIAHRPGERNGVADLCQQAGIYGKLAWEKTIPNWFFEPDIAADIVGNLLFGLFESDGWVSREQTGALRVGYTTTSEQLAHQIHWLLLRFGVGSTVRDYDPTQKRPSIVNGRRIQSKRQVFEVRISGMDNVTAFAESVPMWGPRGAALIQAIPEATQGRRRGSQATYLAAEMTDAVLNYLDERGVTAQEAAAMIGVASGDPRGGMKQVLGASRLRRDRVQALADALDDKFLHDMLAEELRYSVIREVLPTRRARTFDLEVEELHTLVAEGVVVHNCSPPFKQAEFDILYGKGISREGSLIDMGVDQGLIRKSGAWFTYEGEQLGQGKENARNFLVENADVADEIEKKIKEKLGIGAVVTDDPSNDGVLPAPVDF
# YopH PTP inh: inhibitors of Yersinia enterocolitica YopH tyrosine phosphatase. fluorescence Ex485/Em525. inhibition, %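 (about 10 µM by stock and volumes)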. 140,000 compounds, 0.16% hits. AID 898;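 active means inhibition of 50% or more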;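 further: controls were vehicle for no effect and minimum signal wells for full effect; inactives centre near -20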
# Mtb growth: M. tuberculosis H37Rv growth inhibitors, H37Rv strain (AID 1626); one-dose inhibition, % at 10 µM; IC50 in µM for titrated hits; M. tuberculosis H37Rv growth inhibition; higher % means a stronger effect; 220,000 compounds, 0.95% hits;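 active means confirmed in a dose series; inconclusive means inhibition above 80% but not taken into the dose series; inactive means below 80% or under 30% at every dose of the series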;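 further: bacteria incubated seven days before Alamar blue readout; 0% = bacteria only wells and 100% = bacteria with antibiotic wells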
# Mtb bLac sens: beta-lactam sensitization of Mtb H37Rv; AID 434955; 330,000 compounds, 0.27% hits; M. tuberculosis H37Rv growth with meropenem, percent inhibition; hits of this screen are not shown here; inhibition, % at 25 µM;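 active means about 74% or more and at least 40 points above the plate without the antibiotic, then above 30% in a dose series; inconclusive means first-round hits that could not be retested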;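 further: growth measured after seven days incubation then overnight dye step; 0% = bacteria only wells and 100% = bacteria with antibiotic; twin plates without the antibiotic show which effects depend on it; some results filed as inactive read as strong as hits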
# Arbovirus anti: antivirals against arbovirus infection. arbovirus infection cell-based antiviral screen. inhibition, % at 10 µM. 200,000 compounds, 0.37% hits;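 active means inhibition from about 30%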;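 further: bluetongue infection of BSR cells; cell survival read as ATP light after 72 h; 0% = infected wells without compound and 100% = uninfected wells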
# Arbovirus anti repeat: recorded beside Arbovirus anti, whose call it bears; inhibition, %; measured here: 10K subset replicate screen; many hits read low in the repeat;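 first of two repeat runs on a subset; 0% = infected and 100% = uninfected wells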
# The depositor's hits bear a star; ? = inconclusive; / = not tested or not shown. An excerpt; count on the stated rates, not on these rows.
SMILES,RecA splice inh,YopH PTP inh,Mtb growth,Mtb bLac sens,Arbovirus anti,others
S=C(N/N=C1\CCc2ccccc21)NC1CCCCC1,2.4,/,6%,3,-1,
O=C1c2ccccc2C(Nc2ccc(-c3nc4ccccc4[nH]3)cc2)N1Cc1ccco1 (stereo not drawn),14,-27,9µM*,51,4,Arbovirus anti repeat=0
COc1ccc(OC(C)C(=O)N2CCOCC2)cc1 (stereo not drawn),1.6,-2,-4%,7,-3,
C=C(C)COc1ccc(-c2ncncc2-c2ccc(Cl)cc2)c(O)c1,11,/,/,4,/,
O=C(Nc1ccc(S(=O)(=O)N2CCCC2)cc1)c1cccnc1Cl,-0.7,/,/,-8,/,
CCC(=O)NNc1cc(=O)c2c(=O)n(C)c(=O)n(C)c2[nH]1,-10,-39,-9%,-25,0,
Cc1ccc(S(=O)(=O)N(C)CCCC(=O)Nc2cccc3ccccc23)cc1,3.6,-7,11%,2,3,
CC(=O)N1CCCc2cc(S(=O)(=O)N3CCCC(C(=O)N4CCN(c5cccc(Cl)c5)CC4)C3)ccc21 (stereo not drawn),6.0,/,/,94,/,
CC(=O)Nc1sc(NC(=O)c2ccc(C)cc2)nc1-c1cccs1,-0.1,-24,9%,-2,-6,
O=C(NCCCN1CCOCC1)c1ccc(Cl)cc1Cl,1.7,/,/,-7,/,
OCCC1CN(C2CCC2)CCN1Cc1ccc(F)c(F)c1 (stereo not drawn),-1.5,/,/,-3,/,
COc1cc(N)c(Cl)cc1NC(=O)c1ccccc1,4.3,-16,-5%,-20,-10,

# Fetched by structure from the entries so far, 2 records:
SMILES,RecA splice inh,YopH PTP inh,Mtb growth,Mtb bLac sens,Arbovirus anti,others
OCCC1CN(C2CCC2)CCN1Cc1ccc(F)c(F)c1 (stereo not drawn),-1.5,/,/,-3,/,
COc1ccc(OC(C)C(=O)N2CCOCC2)cc1 (stereo not drawn),1.6,-2,-4%,7,-3,

# Next compounds.
SMILES,RecA splice inh,YopH PTP inh,Mtb growth,Mtb bLac sens,Arbovirus anti,others
Cc1csc(NC(=O)CSc2nc3ccccc3c(=O)[nH]2)n1,0.8,-24,-10%,3,3,
Clc1ccc(SCCN2CCNCC2)cc1,/,/,1%,2,-16,
COc1ccc(-c2csc(NC(=O)COC(=O)c3ccco3)n2)cc1,2.7,-4,8%,72,-7,
CCCNCC(O)Cn1c2ccccc2n2c(=O)cc(C)c(C#N)c12 (stereo not drawn),-3.7,-9,10%,8,16,
COc1ccc(-c2ccc(SCC(=O)Nc3cc(C)on3)nn2)cc1OC,0.5,-37,-2%,17,15,
CCOc1ccc2nc(NC(=O)CS(=O)(=O)c3ccc(C)cc3)sc2c1,-0.8,-15,36%,96,-23,
CCN1C(=O)NC(=O)/C(=C/c2cc(C)n(-c3sc(C)c(C)c3C#N)c2C)C1=O,1.1,-10,24%,12,2,
C/C(CC(=O)Nc1cc(C)cc(C)c1)=N\NC(=O)c1ccccn1,0.4,1,60%,99,0,
O=C(NNC(=O)c1ccccc1Cl)c1ccco1,5.2,/,-10%,-3,/,
CN(C)S(=O)(=O)c1cccc(NC(=O)CCc2c[nH]c3ccccc23)c1,0.1,/,7%,-1,9,
CS(=O)(=O)N1CCN(c2ccc(C(=O)NC3C4CC5CC(C4)CC3C5)cc2[N+](=O)[O-])CC1 (stereo not drawn),1.0,-35,11%,88,-24,
O=C(CN1C(=O)CSC1=O)Nc1ccc2c(c1)OCCO2,-4.5,-40,-4%,-8,0,
Cc1onc(-c2c(F)cccc2Cl)c1C(=O)NC(=S)NCc1cccnc1,11,-26,-5%,0,-4,
CCOC(=O)c1ccc(-[n+]2c(-c3ccccc3)cc(-c3ccccc3)cc2-c2ccccc2)cc1,12,/,/,99,/,
C/C(CCN1CCCCc2nc(C)c(C)cc21)=N\O[C@@H](C)CN1CCCCc2nc(C)c(C)cc21,-7.4,-17,/,0,-10,
c1ccc(CN2C3=NCCN3c3ccccc32)cc1,1.1,-31,-6%,-9,6,
COc1ccc(NC(=O)N2CC(C)OC(C)C2)cc1OC (stereo not drawn),-1.1,-19,-1%,-28,-5,
COC(=O)c1cn(NC(=O)c2cc(OC)cc(OC)c2)c(=O)c2ccccc12,3.9,-3,-4%,-3,5,
COc1cc2c(cc1OC)C(C)N(C(=O)Cn1ncc3c1-c1ccccc1OC3)CC2 (stereo not drawn),-0.8,-22,2%,-4,11,Arbovirus anti repeat=3
CCCCC[n+]1ccn(C2=C([O-])c3ccccc3C(=O)/C2=N\S(=O)(=O)c2ccc(Br)cc2)c1,11,/,1%,-9,/,
C[C@@H](C(=O)OCC(=O)Nc1cc(S(=O)(=O)N2CCOCC2)ccc1Cl)N1C(=O)C2CCCCC2C1=O (stereo partly drawn),0.7,-28,2%,3,6,
COc1ccccc1C(=O)NCCC(=O)NNC(=O)C1COc2ccccc2O1 (stereo not drawn),-3.0,/,/,-2,/,
OCc1ccc(O)c2ncccc12,-11,14,2%,85,-19,
CCN(CC)CCNC(=O)c1ccc(Sc2ccc(C)cc2)c(NC(C)=O)c1,-0.6,/,7%,-2,-13,

# Copied from the results shown for reference:
SMILES,RecA splice inh,YopH PTP inh,Mtb growth,Mtb bLac sens,Arbovirus anti,others
S=C(N/N=C1\CCc2ccccc21)NC1CCCCC1,2.4,/,6%,3,-1,
O=C1c2ccccc2C(Nc2ccc(-c3nc4ccccc4[nH]3)cc2)N1Cc1ccco1 (stereo not drawn),14,-27,9µM*,51,4,Arbovirus anti repeat=0
COc1ccc(OC(C)C(=O)N2CCOCC2)cc1 (stereo not drawn),1.6,-2,-4%,7,-3,
C=C(C)COc1ccc(-c2ncncc2-c2ccc(Cl)cc2)c(O)c1,11,/,/,4,/,
O=C(Nc1ccc(S(=O)(=O)N2CCCC2)cc1)c1cccnc1Cl,-0.7,/,/,-8,/,
CCC(=O)NNc1cc(=O)c2c(=O)n(C)c(=O)n(C)c2[nH]1,-10,-39,-9%,-25,0,

# (cont.)
SMILES,RecA splice inh,YopH PTP inh,Mtb growth,Mtb bLac sens,Arbovirus anti,others
O=C(NNC(=S)NC(=O)c1sc2ccccc2c1Cl)c1ccc(Cl)cc1,1.3,-24,?,?,-11,
C=CCN1CN(CCc2ccccc2)CNC1=S,-1.0,/,-7%,-1,/,
COCCCNC(=O)CC(NS(=O)(=O)c1ccc(F)cc1)c1ccc(OC)cc1 (stereo not drawn),1.0,68*,-7%,-7,-3,
CC(NC(=O)c1ccco1)c1nc(-c2ccc(C(C)(C)C)cc2)no1 (stereo not drawn),-0.5,/,/,7,/,
O=C(Nc1ccc(OC(F)(F)F)cc1)C1CCCN(S(=O)(=O)c2cnc[nH]2)C1 (stereo not drawn),5.8,/,/,10,/,
COc1cccc(CC(=O)Nc2nc(-c3ccc(OC)c(OC)c3)cs2)c1,1.6,/,/,7,/,
Cc1csc(SC(C)c2nc3scc(-c4ccccc4)c3c(=O)[nH]2)n1 (stereo not drawn),-4.1,/,-1%,-11,/,
CN(CCc1cnn(C)c1)Cc1cn(C)nc1-c1ccc2c(c1)OCCO2,-2.3,/,-6%,4,1,
CCCn1nc(C(=O)OCC(=O)c2c(N)n(C)c(=O)n(C)c2=O)c2ccccc2c1=O,0.5,/,5%,2,-6,
Cc1csc(SCC(=O)NC(C)C2CC3CCC2C3)n1 (stereo not drawn),3.2,/,/,-3,/,
Cc1sc2ncnc(SCC(=O)c3ccc(O)cc3O)c2c1C,0.7,/,8%,4,/,
CCN1CCN(C(=O)c2ccc(CN(c3ccc(C)c(C)c3)S(C)(=O)=O)cc2)CC1,-0.5,/,4%,2,-4,
C[C@H]1CC[C@@]2(O[C@H](CCO)C[C@@H](O)[C@@H]2O)O1,-5.8,/,-16%,-8,2,
Clc1ccccc1-c1nn2c(-c3ccncc3)nnc2s1,-0.4,-23,3%,2,18,
Cc1ccc(S(=O)(=O)Nc2ccccc2/C=N/c2nc3ccccc3n2C(C)C)cc1,/,14,7%,2,16,
COC(C/C=C/[C@@H](O)COCc1ccccc1)OC,0.1,/,-6%,-7,/,
COc1ccc(S(=O)(=O)NC(C)C(=O)NCc2cccnc2)cc1OC (stereo not drawn),0.5,/,/,0,/,
COc1ccc(S(=O)(=O)N2CCN(c3ncccn3)CC2)cc1OC,0.1,/,/,-13,/,
N#Cc1ccc(NC(=S)Nc2ccccc2)cc1,-1.5,6,1%,3,-7,
CCCCCc1ccc(S(=O)(=O)NCCc2ccncc2)cc1,4.1,-5,62%,97,-10,
O=C(Nc1ccnn1C1CCN(C(=O)c2cccc(C(F)(F)F)c2)CC1)C1CC1,-1.2,/,/,-2,/,
COc1ccccc1-c1cc(C(F)(F)F)n2ncc(S(=O)(=O)c3ccccc3)c2n1,-3.4,-52,-2%,-10,-6,
COc1ccc(-c2cn(-c3ccc(SC(F)F)cc3)c3[n+]2CCC3)cc1OC,-3.4,-15,4%,-2,-2,
Cc1ccccc1CS(=O)(=O)CCC(=O)NCc1ccccn1,2.8,-40,-13%,-4,1,
Cc1ccccc1NC(=O)CSc1nc(O)cc(=O)n1C,0.2,/,-6%,-3,/,
O=C(C1CCCO1)N1CCN(C(=S)Nc2cccc(F)c2)CC1 (stereo not drawn),0.9,/,/,-8,/,
O=C(NC1CCCC1)[C@@H]1CSC2c3ccccc3C(=O)N21 (stereo partly drawn),-2.4,/,/,-5,/,
CCCCn1c(SCC(=O)NCc2ccccc2)nc2ccc(N3CCOCC3)cc2c1=O,-1.7,-32,-6%,1,-1,
CCC(C)NC(=O)Nc1ccc(Br)cc1Cl (stereo not drawn),12,/,8%,-1,1,
CCN(CC)S(=O)(=O)c1ccc(/C=C/C(=O)Nc2ccccc2N2CCOCC2)cc1,0.9,/,8%,21,/,
COCC1CCCN(Cc2nc(Cc3ccccc3)no2)C1 (stereo not drawn),-2.4,/,2%,4,9,
NS(=O)(=O)c1ccc(CCNC(=O)Cc2ccc(S(=O)(=O)N3CCCC3)s2)cc1,1.4,/,2%,-7,/,
N#Cc1c(-c2ccc(Cl)cc2)cc(-c2cccs2)nc1SCC(=O)O,-1.9,/,/,2,/,
Cc1c(OCc2ccccc2)c(=O)ccn1Cc1ccc(Cl)cc1,12,-25,48%,97,-8,
O=C(NCCO)C1CCN(C(=O)c2ccc(-c3ccccc3)cc2)CC1,1.3,/,-14%,-9,-8,
O=C(OCCn1cncn1)c1cc2ccccc2oc1=O,3.8,-45,1%,-2,4,
COC(=O)COc1ccc(S(=O)(=O)Nc2ccc3c(c2)OCO3)cc1Cl,1.3,-23,6%,64,3,
C/C(Cl)=C/CSc1nn2c(=O)c3ccccc3nc2s1,3.5,3,?,99,-13,
Cc1ccccc1NC(=O)NCC1CCCO1 (stereo not drawn),0.2,-13,-13%,-5,3,
NC(=O)CC(NC(=O)c1ccccc1)c1ccc(NCCOc2ccccc2)c([N+](=O)[O-])c1 (stereo not drawn),0.6,/,1%,2,/,
O=C(CSc1nc(=O)n(CCCN2CCOCC2)c2c1CCCC2)Nc1ccc(F)cc1,1.7,/,/,-11,/,
COc1ccccc1N(CC(O)COc1c(C)cc(C)cc1C)S(=O)(=O)c1ccccc1 (stereo not drawn),11,-23,-1%,-11,-17,
Cc1nc2c(C(=O)N3CCC4(CC3)OCCO4)cnn2c(C)c1Cc1cccc(Cl)c1,2.9,/,0%,-9,4,
Cc1cc(C(=O)Nn2cnnc2)ccc1[N+](=O)[O-],-2.2,/,/,4,/,
CCC1(COC(=O)Nc2cccc(Cl)c2)COC1,4.0,-29,4%,4,10,
Cc1cc(C)c(OCC(=O)Nc2ccc(NC(=O)c3ccco3)cc2)c([N+](=O)[O-])c1,/,-22,-8%,-1,6,
Cc1ccc(NC(=O)COC(=O)c2ccn(C)n2)cc1,-0.2,24,2%,-7,4,
COC(=O)CSc1nnc(CNC(=O)c2cc(OC)c(OC)c(OC)c2)n1C,0.8,-10,-3%,-8,8,
O=C(CCc1c[nH]c2ccccc12)OCc1cccc(C(F)(F)F)c1,3.0,/,/,98,/,
CC(=O)N1CCN(c2ccc(N=Cc3c(O)n(-c4ccc(Cl)cc4)c(=O)[nH]c3=O)cc2)CC1,-6.4,-37,-8%,10,-16,
COc1cccc(C2(C#N)CCN(C)CC2)c1,0.6,/,-20%,-10,-7,
O=C(c1cnc2nc3ccccc3n2c1)c1cc(F)ccc1O,5.0,/,3%,-1,2,
Cc1cc(C)cc(NC2=NCCCS2)c1,-1.2,/,4%,-2,-2,
CCOC(=O)CSc1nnc(NC(=O)c2ccco2)s1,-2.1,/,/,44,/,
C=CCn1c(CNc2ccccc2)nnc1SCC(=O)N/N=C/c1ccccc1O,-2.1,-1,6%,-2,-17,
CN(C)C(=O)CSc1nnc(-c2ccc(S(=O)(=O)N3CCCC3)cc2)n1C,0.8,/,/,-10,/,
NC(=O)c1cc(Cl)ccc1OCC(=O)N1CCCc2ccccc21,-1.7,/,/,-10,/,
Cn1c(N)c(C(=O)COC(=O)CSc2ccc(Cl)cc2)c(=O)n(C)c1=O,-0.2,0,-3%,5,-3,
Cn1c(=O)c2nncnc2n(C)c1=O,0.7,-21,0%,-6,8,
